High-throughput results as filed in PubChem.
RecA intein inh: Mtb RecA intein splicing inhibitors, primary screen, biochemical, fluorescence, HTS. Protein RecA (Mycobacterium tuberculosis (strain ATCC 25618 / H37Rv)), P9WHJ3. cell-free RecA intein splicing. inhibition, %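 (about 9 µM by stock and volumes)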. 290,000 tested, 0.75% active; in the data active means inhibition above about 30%; inconclusive means no clear call, values can overlap the other calls;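 further: 0% = vehicle wells and 100% = reference inhibitor control wells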
Target sequence (P9WHJ3 whole entry, looked up): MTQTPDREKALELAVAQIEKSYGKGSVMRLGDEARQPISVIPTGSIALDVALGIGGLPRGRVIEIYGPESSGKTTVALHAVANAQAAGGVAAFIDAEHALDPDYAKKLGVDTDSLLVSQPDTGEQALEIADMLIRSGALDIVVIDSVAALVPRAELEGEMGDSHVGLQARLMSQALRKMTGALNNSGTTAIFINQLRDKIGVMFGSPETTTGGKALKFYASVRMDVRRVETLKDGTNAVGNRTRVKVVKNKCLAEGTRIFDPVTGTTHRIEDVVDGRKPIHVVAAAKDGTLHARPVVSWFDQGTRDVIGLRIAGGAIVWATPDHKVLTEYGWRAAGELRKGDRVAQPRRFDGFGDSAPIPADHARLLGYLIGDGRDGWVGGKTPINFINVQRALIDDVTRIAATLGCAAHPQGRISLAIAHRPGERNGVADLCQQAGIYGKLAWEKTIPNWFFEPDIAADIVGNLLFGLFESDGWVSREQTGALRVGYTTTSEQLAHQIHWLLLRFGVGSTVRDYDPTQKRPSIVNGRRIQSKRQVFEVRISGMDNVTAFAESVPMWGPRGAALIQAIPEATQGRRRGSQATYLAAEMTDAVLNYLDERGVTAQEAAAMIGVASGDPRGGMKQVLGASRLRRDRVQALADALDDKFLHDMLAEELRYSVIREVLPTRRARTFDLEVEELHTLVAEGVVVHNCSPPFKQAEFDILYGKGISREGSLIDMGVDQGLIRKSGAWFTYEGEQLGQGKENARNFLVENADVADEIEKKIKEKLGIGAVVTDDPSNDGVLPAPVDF
Arbovirus inh: antivirals against arbovirus infection, primary screen, cell-based, full library, 10K replicate subset | arbovirus infection cell-based antiviral screen | inhibition, % at 10 µM | 200,000 tested, 0.37% active | AID 1251, 2008;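 active means inhibition from about 30%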;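 further: bluetongue infection of BSR cells; cell survival read as ATP light after 72 h; 0% = infected wells without compound and 100% = uninfected wells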
YopH inh: YopH tyrosine phosphatase inhibitors, primary screen, biochemical, fluorescence Ex485/Em525; YopH tyrosine phosphatase [Yersinia enterocolitica]; inhibition, %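 (about 10 µM by stock and volumes)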; 140,000 tested, 0.16% active;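 active means inhibition of 50% or more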;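 further: controls were vehicle for no effect and minimum signal wells for full effect; inactives centre near -20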
Mtb growth: M. tuberculosis H37Rv growth inhibitors, H37Rv strain (AID 1626) | M. tuberculosis H37Rv growth inhibition; higher % means a stronger effect | inhibition, % at 10 µM; hits with a dose series show IC50 in µM | 220,000 tested, 0.95% active;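 active means confirmed in a dose series; inconclusive means inhibition above 80% but not taken into the dose series; inactive means below 80% or under 30% at every dose of the series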;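 further: bacteria incubated seven days before Alamar blue readout; 0% = bacteria only wells and 100% = bacteria with antibiotic wells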
Mtb betalactam: beta-lactam sensitization of Mtb H37Rv, H37Rv. M. tuberculosis H37Rv growth with meropenem, percent inhibition; hits of this screen are not shown here. 330,000 tested, 0.27% active. AID 434955, 2010. inhibition, % at 25 µM;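 active means about 74% or more and at least 40 points above the plate without the antibiotic, then above 30% in a dose series; inconclusive means first-round hits that could not be retested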;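 further: growth measured after seven days incubation then overnight dye step; 0% = bacteria only wells and 100% = bacteria with antibiotic; twin plates without the antibiotic show which effects depend on it; some results filed as inactive read as strong as hits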
Arbovirus inh repeat: also measured in Arbovirus inh; calls as there; inhibition, %; measured here: 10K subset replicate screen; many hits read low in the repeat;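 first of two repeat runs on a subset; 0% = infected and 100% = uninfected wells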
The depositor's hits bear a star; u = inconclusive; x = not tested or not shown. An excerpt; rates above refer to the full screens.

SMILES	RecA intein inh	Arbovirus inh	YopH inh	Mtb growth	Mtb betalactam	others
C=CCOc1ccccc1CN1CCC(Oc2cc(C(=O)NC3CC3)ccc2OC)CC1	5.1	x	x	x	-5.7
Cc1ccc(S(=O)(=O)NCCn2cnc([N+](=O)[O-])n2)cc1	-0.4	x	x	x	-2.3
COc1ccc(N2CC(C(=O)N3CCC4(CC3)CC(=O)c3ccccc3O4)CC2=O)cc1 (configuration not stated)	-1.6	x	x	x	-7.7
Cc1ccc(NC(=O)C(=O)NNC(=O)c2ccccc2C)cc1Cl	3.5	-3.7	-42.8	x	98.3
CCc1ccc(NC(=O)CCn2c(=O)c3cccn3c3ccccc32)cc1	-1.9	x	x	x	50.2
CCOc1ccc(CCNC(=O)c2nnn(CC(=O)Nc3ccccc3C)c2N)cc1OCC	-1.7	x	x	x	-3.6
CCOc1ccc2oc(C(=O)OC(C(=O)NC(N)=O)C(C)C)c(C)c2c1 (configuration not stated)	-2.1	x	x	2.3%	4.1
O=C(CCCOc1ccccc1)NCCc1ccccc1	x	-6.6	x	4.5%	-0.8
CCCC(=O)Nc1ccc(NC(=O)c2ccco2)c(OC)c1	0.5	0.5	-20.0	10.4%	2.5
CCCCCCOC(=O)C[N+](C)(C)CCOC1CC2CCC1(C)C2(C)C (configuration not stated)	5.4	4.8	-18.5	62.5%	100.1
COC(=O)/C(=C/Nc1ccccc1)[N+](=O)[O-]	-0.7	8.4	-4.7	-8.2%	-2.6
O=S(=O)(Nc1ccc(S(=O)(=O)Nc2nccs2)cc1)c1ccc(Br)cc1	-52.1	x	x	x	26.4
CCOC(=O)C(C)Sc1nnc(Cc2cc(=O)[nH]c(=O)[nH]2)n1-c1ccc(Cl)cc1 (configuration not stated)	-1.5	-3.0	-6.9	-10.8%	-1.7	Arbovirus inh repeat=1.8
COc1ccccc1CCNS(=O)(=O)c1cn(C)c(=O)n(C)c1=O	-0.1	x	x	-6.0%	-4.6
CCN(CC)S(=O)(=O)c1ccc(C)c(NC(=O)COc2ccc(Cl)cc2Br)c1	3.3	-6.5	-33.8	4.0%	-3.5
CCCCn1c(=O)c(CCC(=O)OC(C)C(=O)Nc2cccc(Cl)c2Cl)nc2ccccc21 (configuration not stated)	-0.7	-4.8	-5.4	-1.6%	2.5
Cn1cnc2cc(NC(=O)c3ccco3)ccc21	-0.9	4.5	-30.4	-7.3%	1.5
CCOC(=O)c1[nH]c2ccc(Br)cc2c1NC(=O)CCN1CCN(C(=O)OCC)CC1	2.2	5.4	-36.5	-9.4%	-9.9
COc1cc(OC)c2c(c1)O/C(=C\c1ccccc1)C2=O	-0.4	x	x	x	85.4
O=C(Nc1cccc(C(F)(F)F)c1)c1cc(-c2cccs2)on1	-3.4	-5.0	-4.9	-6.9%	x
CC(NC(=O)c1ccccc1NC(=O)CSc1nnnn1C)c1ccccc1 (configuration not stated)	1.9	5.0	-16.3	-1.1%	10.9
O=C(Nc1ccccc1C(F)(F)F)c1cccnc1	-0.1	3.6	-9.1	69.0%	-3.2
CCn1c(=O)c(C(=O)Nc2ccc(C)cc2)c(O)c2ccccc21	2.0	x	x	x	-1.7
Cc1ccc(NC(=O)C2C3CCC(O3)C2C(=O)O)c(Br)c1 (configuration not stated)	-1.4	x	x	x	-3.8
CC(C)C(=O)Nc1ccc(NC(=O)c2cccc3c(Br)cccc23)cc1	-4.4	x	x	x	4.1
Cc1sc2nc(COC(=O)CNC(=O)c3ccc(C(C)(C)C)cc3)[nH]c(=O)c2c1C	-1.7	2.1	-45.4	5.1%	-0.6
COc1ccc(OCC(=O)Nc2ccc3oc(-c4ccncc4)nc3c2)cc1	-1.0	-7.0	x	-6.0%	5.5
Brc1ccc(C2=CSC3=NCCN23)cc1	3.2	3.5	x	-2.0%	17.8
O=C(c1cccs1)N(Cc1ccc(F)cc1)C1CCS(=O)(=O)C1 (configuration not stated)	-2.7	x	x	x	-7.0
CCOC(=O)c1sc(NC(=O)CSc2nc3ccccc3o2)c(C(=O)OCC)c1C	-1.3	-10.3	-1.8	1.6%	76.2
O=C(NCC(c1ccco1)N1CCN(c2ccc(F)cc2)CC1)C(=O)NC1CC1 (configuration not stated)	2.3	x	x	x	-9.2
CSCCC(NS(=O)(=O)c1ccc(C)cc1)C(=O)N1CCN(S(=O)(=O)c2ccc(F)cc2)CC1 (configuration not stated)	-0.2	x	x	x	4.1
COC(=O)Cn1c(=O)c2c(nc3n2CC(C)CN3Cc2ccccc2)n(C)c1=O (configuration not stated)	-3.0	x	x	x	-3.2
COc1ccc(/C=N/NC(=O)CCNc2n[nH]c(=O)[nH]c2=O)c(OC)c1	0.0	-3.6	x	4.7%	-4.1
O=C(COC(=O)c1ccc(Br)cc1)NCCN1C(=O)CSC1=O	3.2	-1.6	x	-0.2%	-6.2
Cc1cc(C(=O)NCCCN2CCOCC2)n(-c2ccccc2)n1	-1.6	7.0	4.3	4.1%	-3.5
Cc1ccccc1N(CC(N)=O)S(C)(=O)=O	-4.9	4.0	-15.1	-3.5%	2.1
COc1ccc(NC(=O)COc2coc(CN3CCN(c4ccccc4)CC3)cc2=O)cc1	0.3	x	x	x	2.2
CN(CCC1CCOCC1)C(=O)CC1C(=O)NCCN1Cc1ccoc1 (configuration not stated)	-3.8	3.4	x	4.0%	-6.8
CC(C)n1nnc2ccccc2c1=O	-0.4	9.8	-30.6	1.9%	3.6
CC1CCN(S(=O)(=O)c2ccc(NN=C(C#N)C#N)cc2)CC1	x	10.0	-30.8	-9.9%	-1.3
C[C@@H]1NC(=O)N(c2ccc(F)cc2)C1=O	-0.6	x	x	x	-2.4
CCC(=O)Nc1cccc(-c2nc3ccccc3c(=O)o2)c1	-1.4	3.2	-31.8	x	35.6
COc1cccc(NC(C)C(=O)Nc2cc([N+](=O)[O-])ccc2Cl)c1 (configuration not stated)	-1.0	-8.7	x	-5.0%	-2.3
Cc1ccc(-c2cc(C(=O)NCCCn3ccnc3)no2)cc1	-0.9	-14.6	x	-0.3%	1.9
COc1ccc2oc(C(=O)OCC(=O)NC3(C#N)CCCC3)c(C)c2c1	1.0	x	x	x	4.0
O=C(NC1CCCCC1)C1CN(S(=O)(=O)c2ccccc2)CCN1S(=O)(=O)c1ccccc1 (configuration not stated)	1.9	-9.2	-38.2	-8.3%	10.3
Cc1ccc(Cl)c2c1NC(=O)C2(O)CC(=O)c1ccc(Br)cc1 (configuration not stated)	2.9	-6.4	7.8	-13.1%	-10.9
O=c1cc(NS(=O)(=O)c2ccccc2)nc(SCc2ccccc2Cl)[nH]1	-0.3	-1.9	-9.6	1.6%	5.1
Cc1cc(C)n2nc(CC(=O)NC3CCCC(C)C3C)nc2n1 (configuration not stated)	0.6	8.5	-32.8	-3.4%	-8.9
CCC(=O)N1CCc2cc(S(=O)(=O)N3CCCCC3CC)ccc21 (configuration not stated)	-1.6	x	x	x	0.5
COc1ccc(C(CNC(=O)C(=O)NC2CCCC2)N2CCN(C)CC2)cc1 (configuration not stated)	-1.6	x	x	x	-8.1
Clc1ccc(OCCN2CCN(c3ncnc4sccc34)CC2)cc1	3.7	2.2	-12.6	8.2%	63.8
c1ccc(C2(Cn3ccc4ccccc43)OCCO2)cc1	8.4	1.0	15.8	0.4%	1.2	Arbovirus inh repeat=3.2
Cc1ccc(NC(=O)Cn2ccsc2=N)cc1S(=O)(=O)N(C)C	-1.2	3.4	x	0.3%	0.1
COC(=O)CSc1nc(C)c(C(C)=O)cc1C#N	-1.0	-3.3	-4.1	-1.6%	0.6
CCOC(=O)c1ccc(NS(=O)(=O)c2cc3c4c(c2)CCN4C(=O)CC3)cc1	-0.1	x	x	x	-1.9
C=CCOc1c(CNC2CCCC2)cc(Cl)cc1OC	-1.8	1.5	x	0.3%	-10.8
COC(=O)COc1ccccc1C(=O)Nc1ccc(OC)cc1	-0.5	4.8	-5.9	7.3%	9.2
Cc1nonc1NC(=O)c1ccc(Cl)c(S(=O)(=O)N2CCCCC2)c1	x	-0.5	-40.0	-3.5%	-3.7

Next part.
SMILES	RecA intein inh	Arbovirus inh	YopH inh	Mtb growth	Mtb betalactam	others
CCN(Cc1ccccc1)S(=O)(=O)c1cn(C)cn1	5.3	x	x	x	u
CO/N=C/c1cc([N+](=O)[O-])ccc1Sc1ccc(C)cc1	1.4	5.0	7.2	-4.8%	1.9
CC1Cc2ccccc2N1C(=O)COc1cccc(-n2cnnn2)c1 (configuration not stated)	-3.9	-2.1	-9.2	-6.9%	u
CC(C)C(c1nnnn1Cc1cccs1)N1CCN(C(=O)c2ccco2)CC1 (configuration not stated)	-3.9	-4.5	x	-8.4%	-0.3
O=C1C(c2ccc(F)cc2)N(C2CCCCC2)C(=O)CN1C1CCCC1 (configuration not stated)	1.2	-9.4	-14.5	1.7%	0.0
Cc1cccc(C)c1NC(=O)CS(=O)CC(=O)NCC1OCCc2ccccc21 (configuration not stated)	-1.7	8.5	x	5.3%	-5.4
CC(C)C[C@H](NC(=O)NCc1ccc(Cl)cc1)C(=O)O	0.9	-3.6	-29.3	-8.3%	-15.2
O=C(Cc1cscn1)c1ccc(O)cc1O	x	6.5	-44.2	10.3%	-2.9
CN1C(=O)/C(=C2\SC(N)=NC2=O)c2ccccc21	0.0	-10.2	-33.6	x	-5.9
COc1ccc(NC(=S)NC23CN4CN(CN(C4)C2)C3)c(OC)c1	-1.3	-4.2	x	-5.3%	5.6
CNC(=O)c1ccc(Nc2nnc(-c3ccc(C(N)=O)cc3)c3ccccc23)cc1	-4.9	x	x	x	6.1
CC1CCCC(C)N1C(=O)COc1ccc([N+](=O)[O-])cc1Cl (configuration not stated)	2.9	2.6	x	3.2%	-4.2
COc1cccc(/C=N/Nc2nn3cnnc3c3ccccc23)c1O	-2.4	-15.4	-38.6	x	95.1
Cc1cc(=O)[nH]c(SCC(=O)Nc2ccc(C(=O)O)cc2)n1	0.2	4.6	-4.7	-16.9%	-4.1
CC1(C)Cc2c(sc(NC(=O)c3ccccc3Cl)c2C(=O)O)CO1	0.1	22.7	x	-6.2%	-0.7
O=C(COC(=O)CC12CC3CC(CC(Br)(C3)C1)C2)NC(=O)NCc1ccco1	2.9	-0.5	-7.3	3.3%	-3.6
